# Sfp inh: inhibitors of Bacillus subtilis Sfp phosphopantetheinyl transferase; Q9F4F7; AID 1490; Biochemical Sfp PPTase activity, qHTS; Potency, µM, without a hit: max response, negative = inhibition, hits mostly inhibitors; 310,000 compounds, 3.5% hits; active means well fitted inhibition curve with a large enough effect; inconclusive means small, poorly fitted or top-dose-only effect, or another doubt; inactive means no such curve, though single readings can be large or run the other way;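 further: the enzyme is Sfp with the accession as filed and its product quenches rhodamine fluorescence; potency means the concentration at half of the fitted maximal effect; 0% = enzyme reaction without inhibitor and -100% = no enzyme wells; top concentration of the series not given in the record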
#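 Compounds were incubated with enzyme (final 15 nM) for 15 min at room temperature before substrate addition started the reaction. Fluorescence at 525 nm excitation, 598 nm emission was recorded immediately and after 30 minutes.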
# D2 potentiator: positive allosteric modulators of human D2 dopamine receptor; DiscoveRx D2 beta-arrestin cells, luminescence, 90 min; 100% = 57 uM dopamine signal; potentiation, % (test concentration not listed); 360,000 compounds, 0.23% hits; AID 624464; active = potentiation of 50% or more; inconclusive = 30% to 50%; inactive = 30% or less;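 further: compound concentration not given in the record; tested on top of an EC20 dose of dopamine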
# Target sequence (P14416 whole entry, looked up): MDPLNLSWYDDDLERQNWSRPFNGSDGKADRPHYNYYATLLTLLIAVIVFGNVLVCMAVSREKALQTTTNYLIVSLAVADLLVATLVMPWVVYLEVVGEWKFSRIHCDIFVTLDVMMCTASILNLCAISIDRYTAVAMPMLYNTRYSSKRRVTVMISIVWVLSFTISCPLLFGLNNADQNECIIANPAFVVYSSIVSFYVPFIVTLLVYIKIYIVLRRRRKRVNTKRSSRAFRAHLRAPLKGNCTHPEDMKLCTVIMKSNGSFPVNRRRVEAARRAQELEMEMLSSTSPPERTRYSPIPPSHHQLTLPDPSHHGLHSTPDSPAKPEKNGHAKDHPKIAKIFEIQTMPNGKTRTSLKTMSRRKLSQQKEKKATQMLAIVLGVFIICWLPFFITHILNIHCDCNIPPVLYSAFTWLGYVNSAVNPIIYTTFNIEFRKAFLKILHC
#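 PathHunter beta-arrestin assay in DiscoveRx D2 cells. Compounds were added with an EC20 of dopamine (50 nM final) for 90 min at 37 deg C. Luminescence was read 1 h after detection reagent, with 57 uM dopamine as the EC100 control.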
# TRPV1 PAM: enhances activation of the human vanilloid receptor TRPV1 | TRPV1-expressing cells, Fluo-8 calcium influx, capsaicin EC20 potentiation; host cell line not named in the record; control for the full effect not named in the record | potentiation, % at 8.33 µM | AID 540277 | Q8NER1 | 320,000 compounds, 0.02% hits; active means potentiation above 80%; inconclusive means 30% to 80%; inactive means below 30%; further: 0% is about no effect
#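 TRPV1-expressing cells were cultured overnight at 35.5C and loaded with Fluo-8 calcium dye for 40 to 90 min at room temperature. After a 10 s baseline, compound was added and calcium influx was read kinetically for 3 min (ex 480/em 520 nm).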
# gsp ag: activates gsp, the McCune-Albright syndrome mutation; 340,000 compounds, 0.13% hits; Potency, µM (top dose mostly 76.9 µM), inactives show at the top dose activation (cAMP increase), actives largely listed as activators; gsp mutant cells, cAMP HTRF, 30 min; control for the full effect not named in the record; AID 624287; active = well fitted activation curve with a large enough effect; inconclusive = small, poorly fitted or top-dose-only effect, or another doubt; inactive = no such curve, though single readings can be large or run the other way; cell line not stated here;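 further: phosphodiesterase inhibitor Ro 20-1724 added with compounds to block cAMP breakdown; potency means the concentration at half of the fitted maximal effect; nearly all actives have a fitted effect of over 60% in size; about a fifth of the inactives were tested at one dose only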
#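 Cells stably selected in G418 were plated at 2000/well, grown 16-24 hr, then given compounds in DMSO with the PDE inhibitor […] (300 uM solution added) for 30 min at 37C; cAMP was read by HTRF.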
# Menin-MLL FL inh: menin-MLL binding inhibition, fluorescein peptide; Fluorescence polarization, fluorescein-MLL peptide displacement from menin; FP activity change, % at 61.4 µM; 290,000 tested, under 10 active; inconclusive = falling polarisation curve, or a change in total fluorescence; inactive = total fluorescence flat and polarisation flat or rising; no compound was filed as active; the % refers to the polarisation; negative = inhibition;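 further: % of control where 0% means no effect; inhibitors lower the polarisation; unlabelled MLL peptide was the positive control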
# ClpP mod: qHTS Assay for Activators of ClpP; ATP-dependent Clp protease proteolytic subunit (Bacillus subtilis (strain 168)), P80244; Potency, µM (top dose mostly 57.5 µM), for inactives: at the highest dose activity change, negative = active; 340,000 compounds, 1.9% hits; AID 651965, 2013; purified B. subtilis ClpP, FRET peptide cleavage, 20 min; active = well fitted falling curve with a large enough effect; inconclusive = small, poorly fitted or top-dose-only effect; inactive = no such curve, though single readings can be large or run the other way; further: potency means the concentration at half of the fitted maximal effect; the source files actives as falling curves though it sought activators and does not explain the sign; nearly all actives have a fitted effect of over 65% in size; many hits overshoot -100%
# Target sequence (P80244 whole entry, looked up): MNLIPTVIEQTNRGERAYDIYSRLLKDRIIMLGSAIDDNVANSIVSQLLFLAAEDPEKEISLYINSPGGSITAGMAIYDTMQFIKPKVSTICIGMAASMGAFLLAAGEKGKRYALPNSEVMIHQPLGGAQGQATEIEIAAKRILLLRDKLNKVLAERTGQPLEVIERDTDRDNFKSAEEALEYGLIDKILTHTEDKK
#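 Buffer: 100 mM Tris/HCl pH8, 100 mM KCl, 0.05% low protease BSA, 2.5% glycerol, 0.01% Tween-20. ClpP 10 microg/mL final; 20 min RT; delta FRET normalized to ADEP and DMSO controls.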
# gsp antag: antagonizes gsp, the McCune-Albright syndrome mutation. gsp-mutant cells, cAMP HTRF, 30 min; control for the full effect not named in the record. Potency, µM (titrated, usually from 76.9 µM), for the others: top-dose activity change, negative = inhibition, actives largely listed as inhibitors. 340,000 compounds, 0.4% hits; active = falling curve of any shape with a large fitted effect; inconclusive = falling curve, mostly with a smaller effect; inactive = flat or rising curve; cell line not stated here;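 further: intracellular cAMP measured with PDE inhibitor Ro 20-1724 present during compound exposure; potency means the concentration at half of the fitted maximal effect; on the % scale 0 is the no-effect control and ±100 the full control effect; nearly all actives have a fitted effect of over 65% in size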
#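 G418-selected cells were plated in DMEM/10% FBS for 16-24 h at 37C, then treated with compounds plus the PDE inhibitor […] (300 uM solution added) for 30 min at 37C. Intracellular cAMP was measured by HTRF after 30 min lysis at room temperature.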
# * hit, by the source's call; ? = inconclusive; · = not tested or not shown; & = joins results of further samples; [ ] = dose if it differs, or a comment.
SMILES,Sfp inh,D2 potentiator,TRPV1 PAM,gsp ag,Menin-MLL FL inh,ClpP mod,gsp antag
Cc1cccc(NC(=O)c2cnc3n(c2=O)CCS3)c1,5%,0,-1,6%,1.7,-2.9%,0%
COc1ccc(-c2cc(C3CC3)nc(N)c2C#N)cc1,-1%,-2,-4,13%,3.9,·,2%
CCc1ccccc1NC(=O)c1cc(=O)c2ccccc2o1,-4%,-12,-10,10%,-3.8,-0.3%,-5%
COc1cccc(NC(=O)CCC(=O)Nc2cccc(OC)c2)c1,-6%,-12,-1,-67%,1.0,-0.4%,-12%
COc1cc2nc(N(CCN(C)C)C(=O)c3ccc4ccccc4c3)sc2cc1OC,-3%,-33,-26,-2%,-2.5,2.0%,-8%
Cn1c(SCC(=O)Nc2ccc(C(=O)O)cc2)nc2scc(-c3ccccc3Cl)c2c1=O,·,-1,·,4%,·,·,-22%
O=C(/C=C/Nc1cccc(F)c1)c1ccco1,6%,0,-23,-17%,1.8,-3.7%,3%
COc1ccc(-n2cc(CNCCCN3CCCC3=O)c(-c3ccccc3Cl)n2)cc1,-1%,-6,4,0%,6.7,-2.6%,-7%
COc1ccc(C(=O)C(CO)Oc2ccccc2OC)cc1OC (stereo not given),-6%,-11,11,-31%[inhibitor],1.1,-0.8%,7%
CCOc1ccccc1OCCCC(=O)NC1CCCc2ccccc21 (stereo not given),9%,-11,-7,-2%[15.4 µM],3.1,1.2%,-6%
COc1ccc(S(=O)(=O)N2CCC(C(=O)NCCC(=O)NC3CC3)CC2)cc1,4%,-7,17,?,4.1,-4.4%,11%
O=C(c1ccc(Cl)cc1Cl)c1ncc(C(F)(F)F)cc1Cl,4%,-3,0,-8%,4.2,0.6%,-3%

# Next part, starting with the last three of the part before.
SMILES,Sfp inh,D2 potentiator,TRPV1 PAM,gsp ag,Menin-MLL FL inh,ClpP mod,gsp antag
CCOc1ccccc1OCCCC(=O)NC1CCCc2ccccc21 (stereo not given),9%,-11,-7,-2%[15.4 µM],3.1,1.2%,-6%
COc1ccc(S(=O)(=O)N2CCC(C(=O)NCCC(=O)NC3CC3)CC2)cc1,4%,-7,17,?,4.1,-4.4%,11%
O=C(c1ccc(Cl)cc1Cl)c1ncc(C(F)(F)F)cc1Cl,4%,-3,0,-8%,4.2,0.6%,-3%
CC(C(=O)Nc1ccc2[nH]c(=O)[nH]c2c1)N1CCN(Cc2ccc3c(c2)OCO3)CC1 (stereo not given),·,-32,5,-9%,·,-0.3%,3%
Cc1cc(-c2nnc3n2N=C(c2ccccc2)CS3)n[nH]1,-18%,-4,·,-9%[15.4 µM],-0.1,·,-8%
CC(C)Sc1nc2ccccc2[nH]1,21%,0,-8,-7%,-4.5,-0.2%,14%
COC(=O)c1sccc1-n1cccc1C(=O)C(=O)N1CCCC1,25%,5,7,-34%[inhibitor],3.5,0.4%,22%
COC(=O)C(Cc1ccc(OC(=O)c2ccc(Cl)cc2)cc1)N1Cc2ccccc2C1=O (stereo not given),5%,-2,15,?,-2.6,-1.2%,-12%
COc1ccc(S(=O)(=O)N2CCOC2CNC(=O)C(=O)NCCc2c[nH]c3ccccc23)cc1 (stereo not given),5%,2,22,-13%,5.0,-3.7%,-28%
O=Cc1c(F)cccc1N1CCCC1,17%,-4,-16,-20%,0.1,-2.1%,9%
COc1ccc(-c2nnc(SCC(=O)Nc3nncs3)o2)cc1,3%,-4,-10,-1%[15.4 µM],-7.5,·,-28%
CCOC(=O)N1CCN(S(=O)(=O)Cc2ccccc2)CC1,9%,14,·,-27%,5.3,1.0%,8%
C=CCn1c(C)c(C(=O)OCC)c2cc(O)c3ccccc3c21,-1%,26,-4,-39%[inhibitor],-1.9,·,0%
CCOc1cc(/C=N/NC(=O)CN2CCOCC2)ccc1OCc1ccc(Cl)cc1,6%,0,6,?,2.1,-3.0%,-12%
CC1CCN(S(=O)(=O)c2cccc(C(=O)Nc3nncs3)c2)CC1,2%,1,-6,15%[15.4 µM],-3.5,3.4%,5%
Cc1ccc(CCN2CC(C(=O)NCc3ccc4c(c3)OCO4)CC2=O)cc1 (stereo not given),11%,-2,-6,6%[15.4 µM],4.5,·,1%
O=C(CCl)N1c2ccccc2Sc2ccc3ccccc3c21,·,-12,·,-9%,·,-6.0%,·
CS(=O)(=O)N1CCC(Oc2cccc(C(=O)NCCCOc3cccnc3)c2)CC1,11%,-7,9,1%[15.4 µM],·,-1.6%,-14%
CCS(=O)(=O)Nc1ccc2[nH]c(=O)[nH]c2c1,-3%,1,-3,-9%[15.4 µM],-4.3,·,20%
Cc1ccc(NC(=O)CSc2nc(=O)n(CCCN3CCOCC3)c3c2CCCC3)c(C)c1,·,-14,-4,7%[15.4 µM],·,1.1%,-16%
CCCS(=O)(=O)N1CCN(Cc2ccccc2C(F)(F)F)CC1,50µM*,-9,-22,10%,-0.1,-7.3%,0%
NC(=O)N/N=C/c1cn(-c2ccccc2)nc1-c1cccs1,-3%,9,-3,2%[15.4 µM],8.0,·,-17%
CCOc1ccccc1N1CC(C(=O)NNC(=O)c2ccc(F)cc2)CC1=O (stereo not given),·,-17,7,-21%,·,-25%,8%
O=C(Nc1ccc2oc(-c3ccccc3)nc2c1)c1cccs1,-7%,1,-4,9%,2.0,145%,?
Clc1ccc(SCNc2ccccc2Cl)cc1,45µM*,6,-12,-11%,2.1,-2.3%,-8%
COc1ccc(N2C(=O)CC(Nc3ccc(F)cc3)C2=O)c([N+](=O)[O-])c1 (stereo not given),9%,-3,-3,-1%[15.4 µM],2.1,-1.1%,5%
COc1ccc(CNC(=O)CSc2ncn[nH]2)cc1OC,4%,-2,-19,0%,0.1,·,9%
O=C(O)C1CCN(C(=O)c2ccc(Cl)cc2)CC1,1%,2,-7,2%,-2.1,89%,4%
CCn1c(SCC(=O)Nc2ccccc2)nc2nc3c(cc2c1=O)COC(C)(C)C3,5%,-8,?,-9%,-1.9,-1.2%,-16%
COc1ccc(-c2nc(C#N)c(N3CC(C)OC(C)C3)o2)cc1OC (stereo not given),-7%,-5,21,?,-1.7,0.71µM*,6%
Cc1ccc(-c2nc(=S)c3c(n2CC2CCCO2)CC(C)(C)OC3)cc1 (stereo not given),-11%,-5,2,?,0.7,0.5%,-2%
Cc1nn(-c2ccccc2)c(N)c1Sc1ccc([N+](=O)[O-])cc1,?,-11,4,-18%,5.5,-1.6%,-10%
COc1ccc2c(c1OC)C(=O)OC2CC(=O)c1ccc(O)c(O)c1 (stereo not given),-16%,5,-6,?,2.3,-4.6%,0%
O=c1oc2ccccc2nc1/C=C(O)/C=C\c1ccccc1,-18%,11,14,-21%,2.0,1.1%,-15%
C=C1CN(Cc2ccccc2)S(=O)(=O)c2ccccc21,?,-5,-6,?,3.4&1.7&2.8,0.1%,0%
O=C(NC1(C(F)(F)F)NC(=O)N(Cc2ccccc2)C1=O)c1cccnc1 (stereo not given),7%,18,-8,9%,6.5,-1.2%,-3%
CC(=O)C(Cc1ccccc1)NC(=O)COc1ccc2c(c1)OCO2 (stereo not given),·,-6,·,-25%,·,·,7%
CS(=O)(=O)N(CC(=O)Nc1ccccc1)c1cccc(Cl)c1Cl,5%,-1,2,?,-2.1,·,-2%
Cc1ccc(Cl)cc1N1CCN(C(=O)C2CCC(=O)N2C(C)C)CC1 (stereo not given),-19%,3,-16,-6%,-0.3,0.1%,12%
O=C(NC1CC1)c1cc(F)c(F)cc1Cl,-3%,-1,3,-18%,-0.9,-0.4%,-1%
CC(C)NC(=O)N(C)C[C@H]1Oc2ccc(NC(=O)Nc3ccc(C(F)(F)F)cc3)cc2C(=O)N([C@H](C)CO)C[C@@H]1C,·,1,·,·,·,-0.4%,10%
COc1cccc(NC(=O)Cn2cnc3sc(C)c(S(=O)(=O)N4CCN(C)CC4)c3c2=O)c1,13%,-7,3,-10%,-4.0,1.3%,10%
COc1ccc(C2(C(=O)NCCCN3CCOCC3)CCOCC2)cc1,3%,-3,4,27%,5.7,0.4%,16%
CC1CSc2nnc(CCc3ccccc3)n21 (stereo not given),10%,-3,1,-28%,4.6,0.0%,9%
O=C(CCCOc1ccc(Cl)cc1Cl)N/N=C/c1ccccc1O,3%,-16,3,23%,5.5,-7.3%,-1%
CCN(CC)CC(=O)Nc1sc(C)c(C)c1C(=O)c1ccc(C)cc1,-12%,-21,-18,3%[15.4 µM],0.8,0.2%,-7%
O=C(C[n+]1cccc(O)c1)Nc1ccc(Br)cc1,7%,-7,2,-1%[15.4 µM],-2.5,28µM*,8%
Cc1cccc(C)c1OCc1cc(C(=O)N2CCNC(=O)C2)no1,3%,2,-12,20%,·,-2.0%,3%
COc1cc(NC(=O)c2ccco2)c(OC)cc1NC(=O)Nc1cccc(Cl)c1,-11%,0,-5,?,0.3,0.4%,-8%
Cc1ccc(OCCn2c(C)nc3ccccc32)cc1,-4%,-2,-10,-85%[inhibitor],4.8,·,11%
COc1ccccc1N1CCN(C(=O)CSc2nc3ccccc3c(=O)n2CC2CCCO2)CC1 (stereo not given),-1%,-16,14,1%,2.2,4.1%,-25%
CC1CCC(NC(=O)c2ccc3snnc3c2)CC1 (stereo not given),8%,-9,-21,?,0.7,0.0%,-2%
CC(=O)c1c(C)nn(CC(=O)NC2CCCN(Cc3ccc(CC(C)C)cc3)C2)c1C (stereo not given),-3%,-14,-4,28%,·,-0.6%,-5%
Cn1c(C(=O)NCC2CCCO2)cc2c(=O)[nH]c3ccccc3c21 (stereo not given),-10%,13,26,24%,-1.3,22µM*,15%
CCOc1ccc2nc(NC(=O)C3CCCN(S(=O)(=O)c4cccs4)C3)sc2c1 (stereo not given),26%,13,4,3%,4.0,-14%,2%
CS(=O)(=O)n1nc(-c2ccccc2)nc1N,0%,-10,1,6%,-1.9,1.5%,1%
CCn1c(SC/C=C/c2ccccc2)nnc1-c1cccs1,13%,-9,4,-86%[inhibitor],0.4,-1.6%,-29%

# Source: PubChem BioAssay (National Center for Advancing Translational Sciences (NCATS))
